NS1 function inh: inhibitors of influenza NS1 protein function. 270,000 compounds, 0.4% hits. Potency, µM (titrated, usually from 46.1 µM), for inactives: at the top dose activity, positive = more growth. S. cerevisiae slowed by influenza A NS1, growth recovery by OD600; active means well fitted rising curve with a large enough effect; inconclusive means small, poorly fitted or top-dose-only effect; inactive means no such curve, though single readings can be large or run the other way; further: nearly all actives have a fitted effect of over 50% in size
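Growth recovery, yeast-based: influenza A NS1 expressed in S. cerevisiae causes slow growth, and suppressors are detected by OD600. The parent strain without NS1 is used as positive control.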
SARS PLP yeast: blocks SARS-CoV papain-like protease in a yeast assay; 330,000 compounds, 0.19% hits; AID 485353; S. cerevisiae expressing SARS-CoV PLpro, growth rescue; control for the full effect not named in the record; Potency, µM (titrated, usually from 32.9 µM), for the others: top-dose activity, positive = growth rescue; active means well fitted rising curve with a large enough effect; inconclusive means small, poorly fitted or top-dose-only effect; inactive means no such curve, though single readings can be large or run the other way; further: 0% is about no effect; nearly all actives have a fitted effect of over 55% in size; growth read by luminescence after 48 h
LASV entry inh: Lassa virus entry inhibition | Lassa virus pseudotype entry inhibition, cell reporter; control for the full effect not named in the record | Potency, µM (doses to about 37.9 µM), for the others: at the top dose activity change, negative = inhibition, hits mostly inhibitors | 300,000 compounds, 1.2% hits | AID 540256; active means well fitted inhibition curve with a large enough effect; inconclusive means small, poorly fitted or top-dose-only effect, or effect the other way; inactive means flat fitted curve, though single readings scatter; tested in HEK293 cells; further: on the % scale 0 is the no-effect control and ±100 the full control effect; nearly all actives have a fitted effect of over 50% in size; luciferase read-out
Cruzain Triton: cruzain (T. cruzi) inhibition with detergent. P25779. 200,000 compounds, 0.43% hits. Potency, µM, for inactives: max response, negative = inhibition, hits mostly inhibitors. purified cruzain, Z-FR-AMC fluorescence, 0.01% Triton;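 further: plate controls were neutral wells for no effect and buffer without enzyme for full effect; nearly all actives have a fitted effect of over 40% in size; top concentration of the series not given in the record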
Target sequence (P25779 123-467 limits assumed): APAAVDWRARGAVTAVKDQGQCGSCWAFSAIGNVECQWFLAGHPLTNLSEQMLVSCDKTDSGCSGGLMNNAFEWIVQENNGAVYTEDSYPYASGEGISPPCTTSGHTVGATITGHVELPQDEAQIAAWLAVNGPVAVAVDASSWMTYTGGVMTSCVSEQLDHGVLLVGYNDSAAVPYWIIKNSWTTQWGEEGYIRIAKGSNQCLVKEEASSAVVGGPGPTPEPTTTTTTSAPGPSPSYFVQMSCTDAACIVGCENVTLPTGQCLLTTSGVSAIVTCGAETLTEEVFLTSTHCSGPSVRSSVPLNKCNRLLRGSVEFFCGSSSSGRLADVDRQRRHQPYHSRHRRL
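Cruzain (1.5 nM) preincubated 15 min at RT with compound in 100 mM sodium acetate pH 5.5, 5 mM DTT, 0.01% Triton X-100. Reaction started with 2 uM Z-FR-AMC; AMC fluorescence (ex 360/em 450 nm) change over 60 s gave rate.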
Cruzain inh noDet: blocks cruzain activity in detergent-free assay; P25779; purified cruzain, Z-FR-AMC fluorescence, no detergent; Potency, µM, without a hit: max response, negative = inhibition, most hits filed as inhibitors; 200,000 compounds, 2.3% hits; AID 1476;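 further: plate controls were enzyme without inhibitor for no effect and buffer without enzyme for full effect; nearly all actives have a fitted effect of over 40% in size; top concentration of the series not given in the record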
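Detergent-free condition (0.00005% Triton X-100) in acetate buffer pH 5.5 with DTT. 1.5 nM enzyme and compound were pre-mixed 15 min, then 2 uM Z-FR-AMC substrate added; reaction progress from fluorescence change between first and third reads (60 s).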
RE007 growth inh: less growth of the S. pombe RE007 Vpr strain | S. pombe RE007 Vpr strain, BacTiter-Glo ATP luminescence, 24 h; control for the full effect not named in the record | Potency, µM (series often up to 92.2 µM), without a hit: top-dose activity change, negative = less growth | 360,000 compounds, 0.21% hits; active = well fitted falling curve with a large enough effect; inconclusive = small, poorly fitted or top-dose-only effect; inactive = no such curve, though single readings can be large or run the other way;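 further: on the % scale 0 is the no-effect control and ±100 the full control effect; nearly all actives have a fitted effect of over 50% in size; the assay follows cell death caused by Vpr and the record does not say whether a fall means rescue or toxicity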
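Fission yeast strain RE007, carrying one chromosomally integrated HIV-1 vpr copy, was seeded at OD 0.01 in PMG+AL medium with 23 nL pinned compound. After 24 h at 30 °C and 99% humidity, viability was read by BacTiter-Glo luminescence.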
MARV entry inh: blocks Marburg virus binding to or entry into cells. 300,000 compounds, 1.8% hits. Marburg virus pseudotyped entry inhibition, cell reporter; control for the full effect not named in the record; about a third of the inactives were read at about 46 µM. Potency, µM (titrated, usually from 37.8 µM), for inactives: at the highest dose activity change, negative = inhibition, actives largely listed as inhibitors; active = well fitted inhibition curve with a large enough effect; inconclusive = small, poorly fitted or top-dose-only effect, or effect the other way; inactive = flat fitted curve, though single readings scatter; tested in HEK293 cells; about a fifth of its hits are not listed in these tables; further: on the % scale 0 is the no-effect control and ±100 the full control effect; luciferase read-out
2A StopGo: FMDV 2A StopGo reporter, luciferase signal; 410,000 compounds, 1.2% hits; Potency, µM (series often up to 57.9 µM), inactives show top-dose signal change, negative = less light; human cells with a luciferase reporter of 2A StopGo recoding; control for the full effect not named in the record; active = well fitted falling curve with a large enough effect; inconclusive = small, poorly fitted or top-dose-only effect; inactive = no such curve, though single readings can be large or run the other way; tested in HEK293T cells; further: on the % scale 0 is the no-effect control and ±100 the full control effect; nearly all actives have a fitted effect of over 45% in size; luciferase light after 4 h
The depositor's hits bear a star; ? = inconclusive; nt = no result given; & = joins results of further samples; [ ] = remark or other dose. Unless noted, the call rests on the fitted dose curve; in most records, active means well fitted curve in the direction sought with a large enough effect; inconclusive means small, poorly fitted or top-dose-only effect, or another doubt; inactive means no such curve, though single readings can be large; an effect the other way counts as inactive or inconclusive. Potency means the concentration at half of the fitted maximal effect.

SMILES	NS1 function inh	SARS PLP yeast	LASV entry inh	Cruzain Triton	Cruzain inh noDet	RE007 growth inh	MARV entry inh	2A StopGo
Cc1cc(C)cc(NC(=O)C2CCC(CNS(=O)(=O)c3ccc4c(c3)C(C)(C)C(=O)N4C)CC2)c1 (stereo not given)	nt	nt	-21%[46.1 µM]	-2.9%	?	nt	nt	-28%
CCOc1ccc2nc(N/C(N)=N/C(=S)Nc3cccc(C)c3)nc(C)c2c1	-6%	-2%	1%	-3.5%	32µM*	0%	0%	-20%
C(#CCN1CCOCC1)COCCCOC(c1ccccc1)c1ccccc1	-7%	6%	?	-1.8%	?	-17%	5%	-20%
O=C(CSCc1nc2ccccc2[nH]1)Nc1ccccc1	-5%	2%	11%	-4.4%	-2%	-11%	21%	-3%
COc1ccccc1N1CCN(C2CCCN(C(=O)CN3CCCC3=O)C2)CC1 (stereo not given)	3%	0%	-2%	nt	nt	0%	29%	-5%
O=C(NCCS(=O)(=O)NCc1ccc(F)cc1)c1ccc2c(c1)OCO2	nt	1%	7%	nt	nt	9%	2%[46.1 µM]	3%
COc1cccc(OCC(=O)Nc2c3c(nn2-c2ccc(F)cc2)CS(=O)(=O)C3)c1	5%	?	-2%	nt	nt	7%	-22%	-19%
CC(C)C(=O)Nc1cccc(NC(=O)CCN2C(=O)c3ccccc3S2(=O)=O)c1	-1%	-4%	1%	-0.9%	20%	-5%	5%	nt
COC(=O)c1ccc(C(=O)OC)c(NC(=O)CSCC(=O)O)c1	1%	1%	16%[46.1 µM]	nt	nt	19%	10%[46.1 µM]	-5%
CCCCOc1[nH]c2nc(-c3ccco3)n(Cc3ccco3)c(=N)c2c1C#N	4%	-4%	0%	-10%	10%	-19%	6%	-10%
Cc1ccc(-c2cc(C(=O)NCCCN3CCOCC3)c3ccccc3n2)cc1C	3%	-1%	nt	nt	nt	0%	21%[46.1 µM]	16%
COc1ccc(C2CC(=O)N(Cc3ccccc3)c3c2c(C)nn3-c2nc(C)cc(C)n2)c(OC)c1 (stereo not given)	nt	nt	2%[46.1 µM]	-1.1%	22%	nt	-5%[46.1 µM]	-15%
CC(=O)c1ccc(NC(=O)CSc2nc(=O)n(Cc3ccccn3)c3c2CCC3)cc1	nt	nt	14%[46.1 µM]	-0.5%	10%	nt	nt	-18%
CCn1cc(C(=O)NC2CCCC2)c(=O)c2cc(S(=O)(=O)N3CCOCC3)ccc21	nt	nt	0%	nt	nt	1%	2%[46.1 µM]	-15%
CC(C)CNS(=O)(=O)c1cc(C(=O)O)c(Cl)cc1Cl	2%	6%	nt	nt	nt	2%	nt	17%
C[C@@H](NC(=O)c1coc(=O)c(Br)c1)c1ccccc1	-4%	8%	?	-8.1%	-10%	-24%	?	40µM*
Cc1ccc(C(=O)NC(C)C2CCCO2)o1 (stereo not given)	10%	-8%	nt	nt	nt	6%	nt	-10%
CCOC(=O)N1CCN(c2cccc(C)c2C)CC1	-7%	-34%	-1%	-2.8%	8%	-3%	12%	-27%
Cc1ccc(Nc2c(-c3cccc(Cl)c3)nc3cccc(C)n23)cc1	nt	nt	?	-13%	?	nt	-28%[46.1 µM]	20%
Cc1cc(=O)c(C(=O)O)nn1-c1ccccc1[N+](=O)[O-]	0%	1%	5%	nt	nt	-1%	5%[46.1 µM]	11%
Cc1ccc(NC(=O)C2CC(=O)n3c(nc4ccccc43)N2)cc1Cl (stereo not given)	2%	-7%	?	nt	nt	-13%	-4%[46.1 µM]	-9%
CCc1cccc(CC)c1NC(=O)c1cccc(S(=O)(=O)N2CCN(C)CC2)c1	8%	-1%	3%	nt	nt	2%	-14%	-10%
CCOC(=O)c1c(-c2ccc(C)s2)csc1N	11%	-1%	nt	nt	nt	-10%	nt	-14%
COCCCn1c(SCC(=O)Nc2oc(C)c3c(C)n[nH]c(=O)c23)nc2ccccc2c1=O	nt	1%	-2%	nt	nt	-18%	-13%	-10%
CCOc1ccc(CNC(=O)Cn2ccc3cc(S(=O)(=O)N4CCCCCC4)ccc32)cc1	11%	2%	-19%[46.1 µM]	-6.0%	5%	0%	nt	-5%&0%
CCCCN(C(=O)/C=C/c1ccc(OCC(C)C)c(OCC)c1)c1c(N)n(CCC)c(=O)[nH]c1=O	nt	2%	-9%[46.1 µM]	nt	nt	10%	0%[46.1 µM]	0%
O=C(COc1cc(Cl)ccc1Cl)Nc1ccc2[nH]c(=O)[nH]c2c1	nt	4%	-15%	nt	nt	6%	?	-17%
Cc1ccc(C)c(-c2csc(NC(=O)c3cnccn3)n2)c1	nt	0%	2%	nt	nt	-22%	14%[46.1 µM]	-2%
O=c1c2cc(Br)ccc2nc(-c2ccc([N+](=O)[O-])cc2)n1O	nt	7%	-8%	nt	nt	?	?	-17%
Cc1cccc(OCC(=O)Nc2cccc(C(=O)Nc3ccccc3C(=O)O)c2)c1	18%	-40%	0%	-12%	-5%	0%	-8%	-11%
COc1ccc(CCNC2CC(=O)N(CCc3ccccc3)C2=O)cc1OC (stereo not given)	-3%	-13%	4%	-3.9%	0%	-3%	-4%	-19%
O=C(c1ccc(Br)s1)N(Cc1cccnc1)c1nc2ccc(F)cc2s1	nt	nt	1%[46.1 µM]	-0.2%	-10%	nt	nt	-5%
CCCCN1C(=O)N(C)C2C1N(C)C(=O)N2CCCC (stereo not given)	2%	6%	22%	0.4%	4%	2%	-4%[46.1 µM]	-16%
CCc1ccc(OCCCN=C(C)c2c(O)n(C)c(=O)n(C)c2=O)cc1	-47%	-3%	?	-1.6%	?	6%	?	?
CCC1=Nc2cc(C(=O)NCCCN3CCOCC3)ccc2Sc2ccc(Br)cc21	1%	-4%	nt	nt	nt	5%	nt	-18%
COc1ccccc1C(=O)COC(=O)Cc1c[nH]c2ccccc12	nt	-5%	8%[46.1 µM]	nt	nt	2%	-13%	21%
COc1ccc(C2/C=C\CN(C(=O)Oc3ccccc3)CC(=O)N2Cc2ccc(F)cc2)cc1 (stereo not given)	-1%	-5%	nt	nt	nt	2%	nt	-25%
COc1cccc(-c2ccc(SCC(=O)NC3CCCCC3)nn2)c1	-3%	-7%	?	nt	nt	-16%	-1%	-13%
COc1ccc(CCNC(=O)C2CCN(S(=O)(=O)c3cccc4cccnc34)CC2)cc1OC	-14%	-6%	nt	nt	nt	-10%	nt	-12%
COc1ccc(-c2nn(-c3ccccc3)cc2C(N)=O)cc1OC	9%	1%	nt	nt	nt	14%	nt	-7%

4 compounds already listed, arranged by SMILES length, smallest number first.
SMILES	NS1 function inh	SARS PLP yeast	LASV entry inh	Cruzain Triton	Cruzain inh noDet	RE007 growth inh	MARV entry inh	2A StopGo
COc1cccc(-c2ccc(SCC(=O)NC3CCCCC3)nn2)c1	-3%	-7%	?	nt	nt	-16%	-1%	-13%
O=C(c1ccc(Br)s1)N(Cc1cccnc1)c1nc2ccc(F)cc2s1	nt	nt	1%[46.1 µM]	-0.2%	-10%	nt	nt	-5%
CCc1ccc(OCCCN=C(C)c2c(O)n(C)c(=O)n(C)c2=O)cc1	-47%	-3%	?	-1.6%	?	6%	?	?
COc1ccc(C2/C=C\CN(C(=O)Oc3ccccc3)CC(=O)N2Cc2ccc(F)cc2)cc1 (stereo not given)	-1%	-5%	nt	nt	nt	2%	nt	-25%

New compounds follow.
SMILES	NS1 function inh	SARS PLP yeast	LASV entry inh	Cruzain Triton	Cruzain inh noDet	RE007 growth inh	MARV entry inh	2A StopGo
O=C(COc1ccccc1Cl)Nc1nnc(S(=O)(=O)N2CCCCCC2)s1	-25%	13%	-6%[46.1 µM]	-3.1%	11%	-10%	nt	-17%&-12%
Nc1cccc(Oc2c(F)c(F)c(Oc3cccc(N)c3)c(F)c2F)c1	-41%	-2%	-6%	nt	nt	40%	18%	-14%
CC(C)c1ccc(NC(=O)C(c2ccccc2)N2CC(=O)Nc3ccccc32)cc1 (stereo not given)	16%	7%	12%	-4.2%	6%	-20%	6%	2%
Cc1cccc(C(=O)Nc2ccc3oc(-c4cccc5c(Br)cccc45)nc3c2)c1	nt	nt	7%[46.1 µM]	-0.3%	?	nt	nt	-12%
O=C(Nc1ccc2c(c1)OCO2)N1CCN(c2cccc(C(F)(F)F)c2)CC1	-31%	-4%	-11%	-8.9%	-4%	23%	?	-23%
C=CCN1C=C2C(=O)C(C)(OC(=O)CC)C(=O)C=C2C=C1CCCC (stereo not given)	?	1%	nt	nt	nt	1%	nt	-11%
O=C(NNC1OC(CO)C(O)C(O)C1O)c1cccc(Br)c1 (stereo not given)	nt	-4%	10%	nt	nt	-9%	2%	-10%
COc1ccccc1C1C=C(c2ccc(Cl)cc2)Nc2nc(NS(C)(=O)=O)nn21 (stereo not given)	-2%	-8%	nt	-9.2%	-5%	nt	nt	nt
CSc1nc2cc(C)nn2c(-c2ccccc2)c1C#N	7%	-1%	nt	nt	nt	-10%	nt	-4%
O=C(NC1CC2CCCC(C1)N2Cc1ccc(F)cc1)c1ccc(F)cc1 (stereo not given)	-8%	0%	nt	nt	nt	-8%	nt	-20%

Two records picked at random from the list so far, as already listed:
SMILES	NS1 function inh	SARS PLP yeast	LASV entry inh	Cruzain Triton	Cruzain inh noDet	RE007 growth inh	MARV entry inh	2A StopGo
O=C(NC1CC2CCCC(C1)N2Cc1ccc(F)cc1)c1ccc(F)cc1 (stereo not given)	-8%	0%	nt	nt	nt	-8%	nt	-20%
O=C(NNC1OC(CO)C(O)C(O)C1O)c1cccc(Br)c1 (stereo not given)	nt	-4%	10%	nt	nt	-9%	2%	-10%

(listing goes on)
SMILES	NS1 function inh	SARS PLP yeast	LASV entry inh	Cruzain Triton	Cruzain inh noDet	RE007 growth inh	MARV entry inh	2A StopGo
Cc1ccc(C)c(OC(=O)c2ccncc2)c1	9%	12%	8%	-1.1%	-4%	-19%	29%	13%
COc1ccc(NCc2cccn2-c2nnc(N3CCOCC3)s2)cc1OC	nt	nt	17%[46.1 µM]	-2.5%	-2%	nt	nt	-11%
Cc1cc(OCC(=O)NCc2ccc(S(N)(=O)=O)cc2)c2c3c(c(=O)oc2c1)CCC3	1%	-4%	?	nt	nt	-13%	?	10%
O=C(CCCN1C(=O)c2cccc3cccc(c23)C1=O)Nc1nccs1	-10%	-3%	nt	nt	nt	5%	nt	-10%

High-throughput results (PubChem BioAssay)
